Sa RN4220 lethal: kills Staphylococcus aureus RN4220; inhibition, % (test concentration not listed); 330,000 tested, 0.33% active; S. aureus RN4220 growth, OD600, 16 h;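 active = z-score of -3 or lower and OD600 up to 0.18 on both plates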;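 note: plate controls were untreated cells for no effect and reference antibiotic for full effect; stock transfer was 100 nL into about 80 µL; one replicate is shown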
BJeLR lethal: kills HRASV12-expressing BJeLR cells; inhibition, % (no concentration beside the values); BJeLR (HRASV12) viability, CellTiter-Glo ATP luminescence, 48 h; reference of the scale not given here; 300,000 tested, 0.17% active; AID 1554;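 active = replicate mean above 50%; inconclusive = above 50% but judged a plate artefact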;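 note: 50 nL library stock added to about 25 µL; numbers are from one replicate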
PrP 5UTR inh: inhibition of PrP 5' UTR reporter expression; inhibition, % (test concentration not listed); cell-based PrP 5' UTR mRNA reporter, plate reader; AID 488862; 340,000 tested, 0.35% active;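 active = every replicate at 50% or more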;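 note: 0 = median of the neutral control wells; tested in H4 reporter cells; numbers are from one replicate; inactives centre near -14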
Sa ugtP lethal: compounds lethal to S. aureus RN4220 ugtP deletion mutant | OD600 growth, 16 h; some inactives read as strong as hits | growth inhibition, % (concentration not given with the values) | 330,000 tested, 0.54% active;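 active = z-score under -3 and OD600 up to 0.15 on both plates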;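 note: plate controls were untreated wells for no effect and antibiotic for full effect; wells of about 80 µL received 100 nL stock; the first replicate is given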
Bead autofluor: flagged as autofluorescent in microsphere protease counterscreen | compound autofluorescence counterscreen, microsphere flow cytometry; active compounds read high | fluorescence intensity (test concentration not listed) | 360,000 tested, 3.1% active | AID 624483;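 active = at least 3 SD above the mean of all compounds, about 16000 in these data; inconclusive = too few beads counted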;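 note: 100 nL of 1 mM stock went into each well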
Mtb hypoxia rep: inhibitors of hypoxia-regulated fluorescent reporter in Mycobacterium tuberculosis; M. tuberculosis hypoxia-regulated fluorescent reporter, fluorescence; 300,000 tested, 0.1% active; AID 1159583; fluorescence inhibition, % (no concentration beside the values);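 active = 35 to 45% if threefold the growth effect, above 45% if 1.5-fold the growth effect; inactive = the rest, general growth blockers included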;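 note: wells of about 50 µL received 100 nL stock; 0% = vehicle wells and 100% = reference inhibitor wells; whole bacteria with a GFP reporter of the hypoxia response; strong numbers were not always called active; many hits fall short of the cut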
Mtb hypoxia rep growth: second read-out of Mtb hypoxia rep, no call of its own (marks repeat the call); growth inhibition, %; measured here: M. tuberculosis growth (absorbance);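 0% = vehicle and 100% = reference antibiotic; read after six days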
An asterisk follows results filed as active; ? = inconclusive; / = no result given.

SMILES	Sa RN4220 lethal	BJeLR lethal	PrP 5UTR inh	Sa ugtP lethal	Bead autofluor	Mtb hypoxia rep	Mtb hypoxia rep growth
O=C(c1cn(-c2ccccc2)nc1-c1ccc(Cl)cc1)N1CCOCC1	-0.9	-4.2	-19.1	10.4	2503	7.5	0.9
O=S(=O)(c1ccccc1)N1CCN(C(=S)NCc2ccccc2)CC1	11.9	-2.8	-17.6	5.2	3376	0.9	-2.2
O=C(C1CN(S(=O)(=O)c2ccccc2)CCN1S(=O)(=O)c1ccccc1)N1CCCCCC1 (configuration not stated)	-10.8	2.4	-43.5	-5.8	?	8.4	8.5
CC(=O)Nc1cccc(/C(C)=N\NC(=O)c2ccc(Cn3nc([N+](=O)[O-])c(Cl)c3C)o2)c1	/	0.3	-19.0	/	2564	/	/
C=CC[C@H]1CC(Cc2ccccc2)=C[C@H](CC=C)N1	0.3	16.5	-9.0	5.1	2769	9.3	3.2
CCc1nnc(NC(=O)CCN2C(=O)C3CCCCC3C2=O)s1 (configuration not stated)	1.6	-4.1	-3.6	2.6	4072	9.2	-0.5
COc1ccccc1C(=O)n1nc(-c2ccccc2)nc1N	3.0	-4.7	-16.6	-6.9	3353	10.3	4.8
COc1ccc(NC(=O)c2ccc(-n3nc(C)c[n+]3[O-])cc2)cc1	1.2	-4.8	-17.2	-3.8	2322	/	/
CCC1CCC2(CC1)NC(=O)N(CC(=O)NCc1ccccc1Cl)C2=O (configuration not stated)	0.4	/	-33.2	4.7	3949	11.0	1.5
OC(COCc1cccs1)CN1CCN(c2ccccc2Cl)CC1 (configuration not stated)	3.2	-4.5	-3.7	12.3	2846	3.1	0.9
CCON=C(c1nonc1N)N1CCN(c2ccc([N+](=O)[O-])cc2)CC1	1.9	/	/	-3.9	/	12.7	6.4
CCN(CC)S(=O)(=O)c1cccc(C(=O)NC(C(=O)NNC(=O)c2ccccc2F)C(C)C)c1 (configuration not stated)	4.2	/	-15.5	1.3	2889	-3.1	-6.9
CC1(C)C2([N+](=O)[O-])CN3CC1([N+](=O)[O-])CN(C2)C3c1ccc(O)c(O)c1 (configuration not stated)	5.1	4.2	-14.7	-2.2	4898	17.3	10.7
COc1cccc(NC(=O)CN(C)C(=O)c2cccc(S(=O)(=O)N3c4ccccc4CC3C)c2)c1 (configuration not stated)	7.3	/	0.7	-13.5	5439	2.5	9.3
CN(CCCC(=O)NCCc1ccccc1)S(=O)(=O)c1ccc([N+](=O)[O-])cc1	25.5	1.6	-28.3	6.6	4355	-2.9	1.5
CCOC(=O)c1cc(CC)sc1NC(=O)CCC(=O)O	4.0	1.9	-33.7	1.2	2380	/	/
O=S(=O)(Nc1ccc2c(c1)OCO2)c1ccccc1	-0.9	-4.5	-26.9	-3.1	23731*	-5.0	-9.2
CC12CCC(=O)N1C(C(=O)Nc1cc(S(=O)(=O)N3CCCCCC3)ccc1OCC(F)(F)F)CS2 (configuration not stated)	1.8	2.3	-20.7	2.8	5879	-3.2	2.4
CC(=O)Oc1ccc(NC(=O)CCC2CCCCC2)c(C(=O)O)c1	0.6	3.6	-11.8	-0.9	3296	/	/
CCN(CC(=O)Nc1ccc(NC(C)=O)cc1)C(=O)Cc1cccc2ccccc12	3.8	2.7	-3.3	11.6	3999	1.1	-3.9
COc1ccccc1N1CCN(/N=C\c2cccnc2)CC1	/	-5.1	-26.0	/	2879	/	/
COc1ccc(Cc2nc(-c3ccccn3)no2)cc1	0.1	2.9	-59.8	-1.6	3293	/	/
CCOC(=O)c1ccc(NC(=O)c2nn(C)cc2Br)cc1	0.0	4.9	-84.9	6.4	3521	/	/
COc1ccc(S(=O)(=O)N2CC(C(=O)O)Oc3ccccc32)cc1 (configuration not stated)	-0.4	-0.3	-4.5	2.4	2998	-4.5	-4.9
Cc1cccc(-n2c(Cc3ccccc3)n[nH]c2=S)c1	7.9	-4.8	24.1	0.5	3981	-0.4	-0.8
Cc1[nH]c(=O)c(C(=O)c2ccccc2O)cc1C(=O)O	0.7	-4.5	-20.9	8.5	4543	-7.5	3.0
CCOc1ccc2c(c1)C(C)=CC(C)(C)N2C(=O)Nc1ccccc1F	3.3	-3.4	-18.2	10.0	11028	-1.5	-5.3
Cc1ccc(C)c(NC(=O)CCN2C(=O)C3CC=CCC3C2=O)c1 (configuration not stated)	-1.5	/	-14.3	2.8	8108	3.2	3.9
Cc1csc(NC(=O)CSc2ccc3nnc(CCNS(=O)(=O)c4ccccc4)n3n2)n1	0.6	8.1	-11.6	-1.3	2490	-5.3	17.0
CN(CC(=O)Nc1ccc(Cl)c(C(F)(F)F)c1)C(=O)CCCc1nc2ccccc2c(=O)[nH]1	1.1	/	-6.4	-6.7	/	2.0	-1.3
OC(COc1ccccc1)CN1CCOCC1 (configuration not stated)	2.6	-5.7	-1.3	-0.7	8743	3.1	4.6
CN=C(Nc1ccc(C(=O)OC)cc1)SC1CC(=O)N(c2ccccc2F)C1=O (configuration not stated)	0.4	-1.9	-11.5	-8.7	2601	/	/
CC(=O)N(Cc1cc2cc(C)ccc2[nH]c1=O)c1cccc(C)c1C	13.9	1.8	-15.3	8.5	3113	-11.5	-3.5
O=C(COC(=O)c1ccccc1Nc1ccccc1)Nc1ccccc1	2.0	-2.1	-25.4	-2.3	2460	5.2	9.2
CC1(C(=O)NC2CCCC2)CCC(=O)N1CCC1=CCCCC1 (configuration not stated)	2.0	9.2	-9.6	-7.3	4176	/	/
COc1cc(OC)c(C(=O)NCc2ccc3c(c2)OCO3)cc1OC	/	6.7	-17.9	/	3560	/	/
Cc1ccc(S(=O)(=O)N2CCN(CN3C(=O)CC4(CCCC4)C3=O)CC2)cc1	4.1	/	-24.5	2.9	6471	6.1	7.4
Cc1cc(=O)[nH]c(SCC(=O)Nc2nnc(CC(C)C)s2)n1	-0.3	0.9	-20.0	16.6	2750	/	/
CCN(C/C=C/c1ccccc1OC)Cc1ccccc1	2.1	3.4	-24.2	5.2	13362	2.5	7.5
COc1ccc(C)cc1NC(=O)CCCN1C(=O)CN(C)C1=O	1.4	/	-10.9	-0.6	3284	11.6	8.1
CCC(C)NC(=O)COC(=O)c1ccc(Cl)cc1O (configuration not stated)	5.7	4.2	-22.0	3.8	3388	11.5	-2.0
Cc1cccc(NC2(C(=O)O)CCCC2)c1	4.8	/	-22.9	4.5	4357	-4.2	-4.9
O=C(O)c1ccc(N/N=C/c2ccc3ncccc3c2)cc1	/	4.8	44.0	/	2146	/	/
Cc1ccc(Cn2c(C3CCCN3c3nc(-c4ccc(F)cc4)cs3)nc3cc(C(F)(F)F)ccc32)cc1 (configuration not stated)	0.7	-9.3	2.5	3.4	4580	-3.6	10.9
O=C(OC(C(=O)NCC1CCCO1)c1ccc(F)cc1)c1cccs1 (configuration not stated)	2.6	-5.1	-13.5	-1.5	8342	2.0	3.2
Cc1ccc(CN2CCN(CC(=O)N/N=C/c3ccc(C)o3)CC2)cc1	/	-10.9	-19.7	/	3420	/	/
O=C(/C=C/c1ccccc1)NC(=S)NNC(=O)c1ccco1	8.1	-9.3	5.0	-5.8	/	20.7	8.5
O=C(C1=C(O)C(=O)N(CCCn2ccnc2)C1c1cccc(Br)c1)c1ccco1 (configuration not stated)	0.8	1.5	-6.1	3.9	3240	6.3	2.9
COc1ccccc1C(CNC(=O)CCNS(=O)(=O)c1ccc(Br)cc1)N1CCCC1 (configuration not stated)	0.8	/	-25.1	2.1	5481	2.8	-4.9
Cc1cc(C(=O)NNC(=O)NC(C)C)no1	3.0	0.3	-30.0	4.5	6406	14.1	0.0
COc1ccc(CNC(=O)COC(=O)c2cnccn2)cc1	1.1	-5.7	-22.0	-1.8	5588	-1.8	-1.1
CN(C)C(=O)CSc1nc(-c2ccccc2)nc2c1CCCC2	4.9	-3.9	-14.0	3.7	2824	3.2	7.6
CC(C)c1ccc(OCc2ccc(C(=O)N3CCCC3)o2)cc1	4.4	-2.6	-31.1	6.0	4396	-2.0	7.6
CC(C)(C)c1ccc(OCc2ccc(C(=O)NN=Cc3ccc([N+](=O)[O-])cc3)o2)cc1	11.3	/	/	10.1	/	-4.5	1.3
O=C(NCc1cccnc1)Nc1ccc(F)cc1F	1.7	-18.2	-6.9	4.2	3611	4.0	1.8
O=C(Nc1ccc(N2CCOCC2)cc1)c1cccnc1	0.1	5.3	-1.3	-1.0	4015	0.0	1.8
O=C(N/N=C/c1ccccc1F)c1cccc(NC(=O)c2ccccc2Cl)c1	/	2.8	-9.5	/	3877	/	/
COc1ccc(S(=O)(=O)N2CCC(C(=O)c3ccc4c(c3)OCCO4)CC2)cc1	3.2	4.5	-16.1	7.8	9619	-0.3	-3.2
Cc1ccc(C(=O)OCC(=O)Nc2ccc3[nH]c(=O)[nH]c3c2)cc1S(=O)(=O)N1CCOCC1	4.2	-3.0	-21.8	6.2	6533	9.9	-1.3
Cc1ccc(S(=O)(=O)Cc2cc(-c3ccc(Cl)cc3)no2)cc1	12.8	-4.7	-7.1	8.0	4082	3.5	-8.9
Carrying on.
SMILES	Sa RN4220 lethal	BJeLR lethal	PrP 5UTR inh	Sa ugtP lethal	Bead autofluor	Mtb hypoxia rep	Mtb hypoxia rep growth
O=C(NN=Cc1ccccc1O)c1cccc(C(F)(F)F)c1	-9.5	/	/	5.4	/	8.6	-0.6
Cc1nc(NC(=O)c2ccccc2)sc1-c1csc(NCc2ccccc2)n1	-12.7	9.4	-18.5	0.1	2503	/	/
COC(=O)Cn1c(=NC(=O)c2nc3ccccc3s2)sc2cc(S(N)(=O)=O)ccc21	/	-10.0	-11.6	/	2115	/	/
O=C(NC1CCCCCCC1)c1cc([N+](=O)[O-])ccc1Cl	6.9	-1.1	-13.8	10.0	4288	8.3	8.0
CC(=O)c1cc(F)c(N2CCN(C(=O)C(C)(C)C)CC2)cc1C	-2.3	-12.9	-15.9	-2.2	4834	9.3	6.3
Cc1ccc([N+](=O)[O-])cc1NC(=O)Nc1onc(C)c1C	1.3	4.9	-35.8	-1.3	4326	0.1	-3.3
O=C1CC(N2CCN(c3ccccc3Cl)CC2)C(=O)N1c1cccc(F)c1 (configuration not stated)	-3.1	9.6	-12.7	8.3	4901	/	/
CCOC(=O)CSc1ccc(C(=O)NCCCN2CCOCC2)cc1[N+](=O)[O-]	2.1	-9.9	-11.2	8.8	2868	14.9	-1.3
C=CCn1cccc(C(=O)Nc2ccc(OCC)cc2)c1=O	4.1	7.3	-61.6	8.3	4410	7.9	8.0
CCN(CC)CCN(C(=O)c1cccc(N2C(=O)CCC2=O)c1)c1nc2cc3c(cc2s1)OCO3	2.1	-6.6	-9.3	16.8	4567	-7.0	-0.7
CCC(C)C(NC(=O)OC(C)(C)C)C(=O)NCc1ccco1 (configuration not stated)	-0.7	2.1	-13.5	5.7	3597	/	/
NC(N)=Nc1nc2ccccc2o1	1.1	-8.8	-28.1	5.3	4561	-0.9	-2.8

Molecules shown so far containing an aryl thioether with sulfur outside any ring:
SMILES	Sa RN4220 lethal	BJeLR lethal	PrP 5UTR inh	Sa ugtP lethal	Bead autofluor	Mtb hypoxia rep	Mtb hypoxia rep growth
Cc1csc(NC(=O)CSc2ccc3nnc(CCNS(=O)(=O)c4ccccc4)n3n2)n1	0.6	8.1	-11.6	-1.3	2490	-5.3	17.0
Cc1cc(=O)[nH]c(SCC(=O)Nc2nnc(CC(C)C)s2)n1	-0.3	0.9	-20.0	16.6	2750	/	/
CN(C)C(=O)CSc1nc(-c2ccccc2)nc2c1CCCC2	4.9	-3.9	-14.0	3.7	2824	3.2	7.6
CCOC(=O)CSc1ccc(C(=O)NCCCN2CCOCC2)cc1[N+](=O)[O-]	2.1	-9.9	-11.2	8.8	2868	14.9	-1.3

(cont.)
SMILES	Sa RN4220 lethal	BJeLR lethal	PrP 5UTR inh	Sa ugtP lethal	Bead autofluor	Mtb hypoxia rep	Mtb hypoxia rep growth
COc1cc(CN(C)C)cc(C=O)c1O	4.9	-7.2	-4.3	12.7	4218	4.5	-10.8
O=C(/C=C/c1ccccc1)NC(=S)Nc1cccnc1	1.6	0.5	-15.6	8.5	5444	8.6	-0.6
O=C(NCc1cccs1)c1ccncc1	6.0	-4.8	-26.4	-6.8	8832	5.2	-1.9
Cc1ccc(C(=O)NN=Cc2ccccn2)cn1	3.4	/	/	7.5	/	9.4	0.5
O=C(NCc1ccccc1)C(c1ccncc1)N(C(=O)c1csnn1)C1CC1 (configuration not stated)	2.0	7.6	-10.9	-2.3	9086	4.7	10.7
Cc1ccc(C(=O)Cn2nnc3c(sc4nc5c(c(-c6ccccc6)c43)CCC5)c2=O)cc1	1.2	2.4	2.0	5.2	2484	7.8	-0.2
CCCN(CCC)C(=O)C1c2ccccc2Oc2ccccc21	/	3.0	-10.3	/	3336	/	/
